# N370S GC mod = inhibits or activates N370S mutant glucocerebrosidase; 0.092% of 330,000 active; P04062; N370S GC spleen homogenate, 4MU-glucoside fluorescence; Potency, µM (titrated, usually from 59.4 µM), inactives show at the top dose activity change, negative = inhibition, actives largely listed as inhibitors;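 also: 0% = full enzyme activity and -100% = no enzyme basal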
# TDP1 cell CPT = DT40-hTDP1 cell growth loss with CPT. chicken DT40 Tdp1-/-;hTDP1 cells + 20 nM CPT, ATP luminescence, 48 h. Potency, µM (top dose mostly 46.2 µM), without a hit: at the highest dose activity change, negative = growth inhibition, usual class: inhibitors. 12% of 420,000 active; also: nearly all actives have a fitted effect of over 55% in size
#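 Cell growth measured by CellTiter-Glo luminescence after a minimum 48 h, 37 C compound exposure with 20 nM CPT in Tdp1-knockout DT40 cells stably expressing hTDP1, seeded 400/well; qHTS titration format.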
# * = called active by the depositor; ? = inconclusive; . = no result given. Calls follow the shape of the dose curve; as a rule, active = well fitted curve in the direction sought with a large enough effect; inconclusive = small, poorly fitted or top-dose-only effect, or another doubt; inactive = no such curve, though single readings can be large; an effect the other way counts as inactive or inconclusive. Unless noted, % is scaled to controls: 0 for no effect and ±100 for the full control effect; potency is read from the fitted curve at half-maximal effect. This is a subset; most or all hits stand in other tables.
Structure | N370S GC mod | TDP1 cell CPT
COC(=O)c1ccc(C(=O)OC)c(NC(=S)N2CCN(c3ccccn3)CC2)c1 | 0% | -6%
CCCn1nnc(NC(=O)/C=C/c2ccco2)n1 | 13% | 29%
COc1ccccc1N1CCN(C2CC(=O)N(c3cccc(Br)c3)C2=O)CC1 (stereo not given) | -5% | -12%
CCS(=O)(=O)/N=C(\N)c1ccccc1 | 28% | 1%
COCCOC(=O)c1c(C)oc2ccc(NS(=O)(=O)c3ccc(F)cc3)cc12 | -3% | ?
CCN(CCCNC(=O)CCNC(=O)Cn1cnc2ccccc2c1=O)c1ccccc1 | ? | -8%
Cc1ccc(-n2c(Cc3cccn3C)nnc2SCC(=O)Nc2nnc(C)s2)cc1 | -8% | -50%
COc1ccc(Nc2cc(Cl)nc(N)n2)cc1 | 7% | -24%
CC1(C)CC(=O)C2=C(C1)Oc1ncn(CCCO)c(=N)c1C2c1ccccc1 (stereo not given) | 9% | -13%
O=c1cc(Nc2ccc3c(c2)OCCO3)[nH]c(=O)n1-c1ccc(Cl)cc1 | 2% | 23µM*
O=C(CSc1n[nH]c(-c2ccco2)n1)Nc1sc2c(c1C(=O)Nc1ccccc1)CCCC2 | 24% | ?
OCCC#Cc1ccc(CN2CCN(CCc3ccccc3)C(CCO)C2)cc1 (stereo not given) | 2% | 4%
Cc1cc(C)nc(SCC(=O)N2CCC(C(N)=O)CC2)n1 | 2% | 2%
CCOc1ccccc1N1CC(C(=O)Nc2ccccc2N2CCOCC2)CC1=O (stereo not given) | 28% | -26%
Cc1ccc(C(=O)NCCNC(=O)c2ccccn2)cc1 | -3% | -12%
COc1ccc(S(=O)(=O)N2CCCCCC2)cc1C(=O)N(C)Cc1ccc(Cl)cc1Cl | -11% | ?
CCn1nnnc1SCC(=O)N1c2ccccc2CCc2ccccc21 | 6% | ?
CS(=O)(=O)N1CCN(c2ccccc2NC(=O)CSc2nnc(-c3ccco3)o2)CC1 | 3% | 2%
COc1ccc(CC(=O)OCC(=O)Nc2cccc(Br)c2)cc1 | 5% | 20%
Cc1cc(C)c2nc(N3C(=O)C(O)=C(C(=O)c4ccco4)C3c3ccc(O)cc3)sc2c1 (stereo not given) | . | -20%
O=C(NCCc1c[nH]c2ccccc12)C(=O)NCC1OCCN1S(=O)(=O)c1ccc(Cl)cc1 (stereo not given) | 2% | ?
C=C(C)COc1ccc(C2NC(=O)c3ccccc3O2)cc1OCC (stereo not given) | 7% | 8%
CN(Cc1ccccc1)C(=O)COC(=O)c1ccc(Br)c(S(=O)(=O)N2CCOCC2)c1 | . | 0%
Cc1ccc(S(=O)(=O)NC(=NC2CCCCC2)c2ccc(Cl)cc2)cc1 | 1% | 6%
O=C(NCC(c1ccco1)N1CCN(c2ccc(F)cc2)CC1)C1CCCCC1 (stereo not given) | -8% | ?
CCOC(=O)N1CCC(NC(=O)CC(NS(=O)(=O)c2ccc(Cl)cc2)c2ccco2)CC1 (stereo not given) | 1% | -6%
CC(c1ccccc1)C1CC(=O)N(C2CCCCC2)C1=O (stereo not given) | 2% | -23%
O=C(CN(Cc1cccs1)C(=O)CNS(=O)(=O)c1ccc(F)cc1)NCC1CCCO1 (stereo not given) | -3% | -2%
COC(=O)c1c(C)[nH]c(C)c1-c1ccccc1 | 1% | -11%
C=CCN1C2=NCCCN2c2ccccc21 | -3% | -7%
COc1ccc(-c2cn(Cc3ccc([N+](=O)[O-])cc3)nn2)cc1 | -2% | ?
Cc1cc2c3c(c1C)C(=O)C(=O)N3C(C)(C)CC2C (stereo not given) | 6% | -16%
Cn1c(=O)c(-c2cccc(Cl)c2)c(O)c2ccccc21 | . | 7%
CCN(c1ccccc1)S(=O)(=O)c1cccc(C(=O)Nc2ccc(C)cn2)c1 | -8% | ?
Cc1ccc(S(=O)(=O)N2CCN(C(=O)COC(=O)c3oc4ccccc4c3C)CC2)cc1 | -4% | -24%
CCNc1nc(NCC)nc(NS(=O)(=O)c2ccc(N)cc2)n1 | -6% | 16%
O=C(c1cnn2c(C(F)F)cc(C3CC3)nc12)N1CCOCC1 | -17% | 2%
Nn1c(SCc2ccc(F)cc2)nnc1-c1ccncc1 | -10% | 13%
CSCCC(NC(=O)c1ccccc1Cl)C(=O)OCC(=O)N1CCCC1=O (stereo not given) | -10% | 2%
CC(=O)Nc1ccc(OCC(O)CN2CCCCC2C)cc1 (stereo not given) | -2% | -6%
CC1CCc2c(sc(NC(=O)c3c([N+](=O)[O-])cnn3C)c2C(N)=O)C1 (stereo not given) | 2% | -20%
CC[C@@H](C)[C@H](NC(=O)C1CCN(C(=O)[C@@H](NS(=O)(=O)c2ccc(C)cc2)C(C)C)CC1)C(=O)O | 7% | 3%
CSc1cccc(NC(=O)CCCOc2ccccc2)c1 | 18% | 3%
O=C(CCl)N(c1ccccc1)C1CCS(=O)(=O)C1 (stereo not given) | 0% | 8.2µM*
Cn1c(=O)c2cc(S(=O)(=O)NCCC(=O)NC3CCCCCCC3)ccc2n(C)c1=O | -2% | -24%
COc1ccc(-c2[nH]ncc2CNCCCSC)cc1F | -5% | -15%
COc1ccc(C(C)NC(=O)C2C(=O)NC3(C)CC2c2ccccc2O3)cc1 (stereo not given) | -4% | -17%
COc1ccc(C)cc1NC(=O)NNS(=O)(=O)c1ccc(NC(C)=O)cc1 | -7% | -8%
O=C(Nc1ccc(Cl)cc1)Nn1cnc2ccccc2c1=O | 0% | 1%
Cc1nnc(SCC(=O)Nc2nccs2)[nH]c1=O | -1% | ?

# In a second layout: 7 of the compounds above
# Below each compound – N370S GC mod, TDP1 cell CPT
C=CCN1C2=NCCCN2c2ccccc21
→ -3%, -7%
COc1ccc(-c2cn(Cc3ccc([N+](=O)[O-])cc3)nn2)cc1
→ -2%, ?
Cc1cc2c3c(c1C)C(=O)C(=O)N3C(C)(C)CC2C (stereo not given)
→ 6%, -16%
Cn1c(=O)c(-c2cccc(Cl)c2)c(O)c2ccccc21
→ ., 7%
CCN(c1ccccc1)S(=O)(=O)c1cccc(C(=O)Nc2ccc(C)cn2)c1
→ -8%, ?
Cc1ccc(S(=O)(=O)N2CCN(C(=O)COC(=O)c3oc4ccccc4c3C)CC2)cc1
→ -4%, -24%
CCNc1nc(NCC)nc(NS(=O)(=O)c2ccc(N)cc2)n1
→ -6%, 16%

# Entries of single compounds, looked up by structure:
# Entry for `COc1ccc(CC(=O)OCC(=O)Nc2cccc(Br)c2)cc1` = N370S GC mod = 5%; TDP1 cell CPT = 20%
# Entry for `CC1CCc2c(sc(NC(=O)c3c([N+](=O)[O-])cnn3C)c2C(N)=O)C1` (stereo not given) = N370S GC mod = 2%; TDP1 cell CPT = -20%

# Going on with the list.
Structure | N370S GC mod | TDP1 cell CPT
COc1ccc(C(=O)NCc2c(C)oc(C)c2C(=O)O)cc1 | -11% | 3%
Cn1c(=O)n(C)c2cc(S(=O)(=O)O)ccc21 | -2% | 8%
CCOC(=O)c1c(-c2ccccc2)csc1NC(=O)CSc1ccccc1 | 15% | -20%
CCOc1ccccc1C(=O)N(CN1CCCC1=O)c1ccc(C)c(Cl)c1 | 8% | 3.7µM*
COCCNc1nc(N)c([N+](=O)[O-])c(NCCO)n1 | 7% | 2%
Cc1nn(C)c(C)c1NC(=O)CSc1nnc(C)n1-c1ccccc1 | -3% | -9%
c1ccc2nc(-c3nccs3)ccc2c1 | -1% | -5%
COc1ccc(C)cc1N(CC(=O)O)S(=O)(=O)c1ccc(C)cc1 | -1% | -2%
O=C(O)C(Cc1ccccc1)N=Cc1c(O)c2ccccc2oc1=O (stereo not given) | -16% | 15%
Cc1cc(NS(=O)(=O)c2ccc(NC(=S)NC(=O)/C=C/c3ccccc3)cc2)no1 | -3% | -11%
COc1cc([N+](=O)[O-])ccc1-c1ccc(/C=N/NC(=O)OC(C)(C)C)o1 | 3% | 3%
CC(C)c1ccc(N(CC(=O)NCc2ccc(F)cc2)C(=O)c2snc(C(N)=O)c2N)cc1 | ? | ?
O=C1CS/C(=N/N=C/c2cccs2)N1 | -9% | 8%
COc1cc(C(=O)NCCOc2cc(C)ccc2C(C)C)cc(OC)c1OC | -4% | ?
Cc1cc(Nc2ccc(Cl)cc2)n2ncnc2n1 | -6% | -4%
CC(=O)Nc1cccc(NC(=O)c2cc(-c3ccccn3)nc3ccc(Cl)cc23)c1 | -20% | 3%
Cc1nn(Cc2ccc(Cl)cc2)c(C)c1NC(=O)Cn1nc([N+](=O)[O-])c(Cl)c1C | 13% | -23%
COc1ccc(-n2c(=O)c3ccccc3c3ccccc3c2=O)c(OC)c1 | 4% | 0%
O=C(COc1ccccc1)NC(=S)Nc1cccc2cc(O)ccc12 | -21% | 17%
C=C(C)C(=O)OCC(=O)NCc1ccccc1 | -1% | 3%
O=P(O)(CCc1ccccn1)CN1CCCCC1 | 2% | -1%
CCOC(=O)Nc1ccc2c(c1)N(C(=O)CCN(C)C)c1ccccc1S2 | -3% | -11%
CCOc1cccc2cc(-c3csc(NC(=O)CCC(=O)NCCN4CCCCC4C)n3)c(=O)oc12 (stereo not given) | -8% | -4%
C=CCN1C(=O)C2(C(C#N)=C(N)Oc3n[nH]c(CCC)c32)c2ccccc21 (stereo not given) | -20% | 10%
CCCNC(=O)COc1coc(CN2CCN(c3ccc(F)cc3)CC2)cc1=O | -2% | 0%
N#Cc1nc(Cc2ccccc2)oc1NCc1ccccc1Cl | 9% | -11%
O=C(NCCc1ccccc1)C(=O)N/N=C/c1ccc2c(c1)OCO2 | 19% | 23µM*
COc1ccc2oc(C(=O)NCCN3CCOCC3)c(C)c2c1OC | 3% | -12%
O=C(Nc1ccccc1F)c1ccc2c(c1)CCN2S(=O)(=O)c1ccccc1 | 0% | ?
O=C(/C=C/c1c(F)cccc1Cl)NCc1ccco1 | 2% | -2%
Cc1cc(C)c2c(N)c(C(=O)NNC(=O)c3ccccc3)sc2n1 | 1% | 11%
CCCC(CCC(=O)Nc1ccc(S(N)(=O)=O)cc1)C(=O)O (stereo not given) | 4% | -8%
CCN(CC)C(=O)C1CCN(c2ncnc3c2cnn3-c2ccc(C)cc2C)CC1 | 7% | ?
C=CCNc1ccc(C(=O)O)cc1 | 13% | 13%
Cc1nn2c(N3CCOCC3)c3c(nc2c1-c1ccccc1)CCCC3 | -2% | ?
Cc1cccc(N2CC(O)(c3cccs3)[N+]3=C2CCCC3)c1 (stereo not given) | 8% | 3%
COc1ccccc1NC(=O)Nc1nc(CC(=O)Nc2cccc(F)c2)cs1 | ? | ?
COCCOC(=O)c1c(C)oc2ccc(OC(=O)c3ccc4c(c3)OCO4)cc12 | 6% | -12%
COc1cccc(CNC(=O)C(=O)NCC2CCCN2S(=O)(=O)c2cc(C)ccc2C)c1 (stereo not given) | 0% | -22%
Cc1c(C)n(Cc2ccccc2)c2ncnc(NCCN(C)C)c12 | -1% | ?
COc1ccccc1C(=O)NCCC(=O)Nc1ccc(S(=O)(=O)Nc2ncccn2)cc1 | . | -11%
Cc1cc(C)c(C(=O)N2CCCC(CNS(=O)(=O)c3cccs3)C2)o1 (stereo not given) | 2% | 2%
CCN(CC(=O)NCCC1=CCCCC1)S(=O)(=O)c1ccccc1 | -1% | -28%
O=C(CNc1ccccc1)N/N=C/c1cn(-c2ccccc2)nc1-c1ccccc1 | 8% | 8%
CCNC(=S)NC1CC2CCCC(C1)N2Cc1ccc(C)cc1 (stereo not given) | -18% | ?
CC(C)CCNC(=O)Cc1csc(-c2ccccc2)n1 | -9% | -12%
CCOC(=O)c1nnc(-c2ccccc2)nc1N1CCSCC1 | 10% | -14%
Cc1cc(NC(=O)CSc2nccn2-c2cccc(C)c2C)no1 | -18% | ?
O=C(NCc1cn2ccsc2n1)Nc1ccc(Cl)cc1 | 4% | -6%
COc1cccc(NC2=C(NCCO)C(=O)c3ccccc3C2=O)c1 | 29% | ?

# Other entries:
Structure | N370S GC mod | TDP1 cell CPT
CC(C)C(=O)Nc1ccc(C(=O)N/N=C/C2CC3C=CC2C3)cc1 (stereo not given) | 14% | 0%
CCOC(=O)C(NC(=O)C1CCCN1C(=O)OCc1ccccc1)C(=O)OCC (stereo not given) | 3% | -16%
N#Cc1ccc(Oc2cc(C(F)(F)F)nc(-c3ccccn3)n2)cc1 | 3% | -18%
CS(=O)(=O)N(CC(=O)N1CCCCCC1)Cc1ccc(Cl)cc1 | -3% | ?
OCCNc1nc(Nc2ccc(Cl)c(Cl)c2)nc2ccccc12 | -14% | 18µM*
CCOc1ccc(/C=N/n2c(C)nnc2C)cc1OC | -8% | 1%
CC(=O)c1cccc(NS(=O)(=O)c2c(C)n[nH]c2C)c1 | -2% | -18%
Cc1cccc(C)c1OCCn1nnc2ccccc21 | 23% | ?
CCn1cc(C(=O)O)c(=O)c2cnc(N3CCN(C(=S)NC(=O)c4ccc(Cl)cc4Cl)CC3)nc21 | -3% | -2%
COc1ccc(C2C(C(=O)c3ccc(C)o3)=C(O)C(=O)N2c2cc(C)on2)cc1OC (stereo not given) | -2% | -4%
O=C(O)c1ccc(-c2nc(-c3ccc(Cl)cc3)cs2)cc1 | 1% | -2%
C=CCN=C1SCC(=O)N1S(=O)(=O)c1ccc(C)cc1 | 12% | -17%
Cc1cc(C(=O)Nc2ccc3c(c2)CCC3)c2ccccc2n1 | -7% | 10%

# High-throughput results (PubChem)
